# Bioassay records as filed in PubChem.
# Rango-impB inh: inhibitors of Rango-importin beta complex formation; Q14974; Rango CFP/YFP FRET sensor + importin beta, 45 min; Potency, µM (top dose mostly 92.2 µM), inactives show at the highest dose inhibition of complex formation; actives 0.031% (n = 340,000); AID 540263; active = rising FRET ratio curve, often small or poorly fitted; inconclusive = mostly compound fluorescence or quenching in the first reads; inactive = flat curves in all reads;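 also: potency is read from the fitted curve at half-maximal effect; 0% = DMSO wells and 100% = buffer wells lacking importin beta; nearly all actives have a fitted effect of over 15% in size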
#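 FRET biosensor Rango (snurportin 1 IBB between N-terminal EYFP and C-terminal Cerulean), 50 nM in PBS/1 mM DTT/0.02% Tween-20/0.1% BSA, preincubated 5 min RT with compound; 0.125 microM importin beta added, 45 min RT, CFP/YFP FRET ratio read.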
# Rango dissoc inh: prevents RanGTP from dissociating the Rango-importin beta complex. AID 540253. Potency, µM (highest dose often 46.1 µM), inactives show top-dose activity change, negative = inhibition. O95149+P62826. Biochemical FRET Rango-importin beta, RanGTP-induced dissociation. actives 0.071% (n = 340,000); active means falling FRET ratio curve, often poorly fitted, with flat reads before Ran was added; inconclusive means other falling curves, or compound fluorescence or quenching; inactive means flat or rising ratio curve;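 also: potency is read from the fitted curve at half-maximal effect; % of control where 0% means no effect; nearly all actives have a fitted effect of over 45% in size; -100% = wells without RanGTP and RCC1; the record marks most hits as doubtful in a second field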
#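 Recombinant Rango FRET biosensor (EYFP–snurportin 1 IBB–cerulean CFP10) at 0.1 uM premixed with 0.25 uM importin beta in PBS, 1 mM DTT, 0.02% Tween-20, 0.1% BSA. Compound added 5 min; RanGTP-RCC1 (0.6 uM Ran, 2 mM GTP, 0.2 uM RCC1) then triggers release, read at 45 min.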
# GLA inh pH 4.5: blocks human alpha-galactosidase A at pH 4.5. purified enzyme, 4-MU-alpha-Gal fluorescence, pH 4.5. 230,000 tested, under 10 active. P06280. activity change, negative = inhibition, % at 105 µM; inconclusive = small, poorly fitted or top-dose-only inhibition, or a rising curve; inactive = flat fitted curve, though single readings scatter; no compound was filed as active;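 also: 0% = full activity with enzyme and -100% = basal without enzyme; dose as in the result columns while the protocol names 77 µM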
# Target sequence (P06280 whole entry, looked up): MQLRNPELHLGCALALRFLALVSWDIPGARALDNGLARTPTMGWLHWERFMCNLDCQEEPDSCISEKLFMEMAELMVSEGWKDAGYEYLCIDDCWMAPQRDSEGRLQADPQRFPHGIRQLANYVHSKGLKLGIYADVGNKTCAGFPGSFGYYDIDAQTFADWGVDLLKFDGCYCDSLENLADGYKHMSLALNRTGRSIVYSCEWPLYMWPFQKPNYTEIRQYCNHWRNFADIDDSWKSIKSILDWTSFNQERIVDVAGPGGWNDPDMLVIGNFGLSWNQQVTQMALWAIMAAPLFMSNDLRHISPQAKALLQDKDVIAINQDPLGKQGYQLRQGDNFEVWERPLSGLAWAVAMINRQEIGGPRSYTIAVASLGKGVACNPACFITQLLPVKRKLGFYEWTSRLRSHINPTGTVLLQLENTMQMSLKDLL
# miR-21 FLuc: raises the signal of a miR-21 reporter; HeLa miR-21 FLuc reporter, luciferase, 48 h; Potency, µM (titrated, usually from 38.3 µM), inactives show at the top dose reporter change, positive = more light; 340,000 tested, under 10 active; AID 2288; active = well fitted rising curve with a large enough effect; inconclusive = small, poorly fitted or top-dose-only effect; inactive = no such curve, though single readings can be large or run the other way;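 also: % of control where 0% means no effect; miR-21 action dims this reporter so a rising signal means less miR-21 action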
#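 Luminescence from a firefly luciferase reporter carrying a miR-21 binding site downstream, stably expressed under a CMV promoter in HeLa cells that make miR-21 endogenously, reports miRNA modulation after 48 h compound exposure up to approximately 40uM final.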
# An asterisk follows results filed as active; u = inconclusive; x = no result given; & = joins results of further samples; [ ] = remark or other dose. These rows are one share of the data (hit frequency here may not be typical).
molecule	GLA inh pH 4.5	Rango dissoc inh	miR-21 FLuc	Rango-impB inh
O=C(Nc1cccc(F)c1)N1CCN(C(=O)c2ccco2)CC1	x	-3%	-3%	2.1%
O=C1C=C(NCC2CCCO2)C2(CCCCC2)O1 (centres undefined)	2	-3%	0%	-3.4%
Cc1ccc(-c2ccnc3cc(C)nn23)cc1	x	-10%	-10%	-2.5%
CCCCCCCCCCCNC(=O)c1ccoc1C	-1	11%	-3%	6.7%
COc1ccc(CNC(=O)COC(=O)CCN2C(=O)C3CC=CCC3C2=O)cc1OC (centres undefined)	x	-7%	x	-2.5%
CCOC(=O)c1[nH]c(C)c(C(=O)N(C)C)c1C	1	-7%	-10%	0.1%
O=C(CCN1C(=O)/C(=C\c2ccccc2)SC1=S)NNC(=O)c1cccnc1	-1	-6%	2%	1.5%
COc1ccc(NC(=O)Nc2c(C)n(C)n(-c3ccccc3)c2=O)cc1	2	-13%	-14%	-1.6%
CCOC(=O)c1cc(-c2ccc(F)cc2)n(CC(=O)NCc2cccnc2)c1C	4	-4%	3%	-0.2%
CCOc1ccccc1/C=C/C(=O)c1ccc(Cl)cc1	-14	-4%	10%	0.8%
Cc1cc2c3c(ccc(C)c3n1)N=CN2c1ccccc1	7	u	-10%	u
COCCCNC(=O)/C(C#N)=C/c1cccc(NC(=O)c2ccccc2Cl)c1	1	1%	0%	-2.6%
CSCC[C@H](NC(=O)[C@@H]1CSC2c3ccccc3C(=O)N21)C(=O)NCc1ccco1 (some centres undefined)	x	-11%	-2%	-1.2%
CC(=O)OCC1CC(COC(C)=O)C(COC(C)=O)CC1COC(C)=O (centres undefined)	x	0%	x	-1.3%
CCC1C(=O)N=C(SCC(=O)Nc2ccc(S(N)(=O)=O)cc2)NC1=O (centres undefined)	1	-10%	1%	-0.7%
CCOc1ccc(NC(=S)N(CCOC)C(C)c2cccnc2)cc1 (centres undefined)	2[21.1 µM]	-10%	-3%	-3.0%

# Pulled by compound from the entries so far:
molecule	GLA inh pH 4.5	Rango dissoc inh	miR-21 FLuc	Rango-impB inh
CSCC[C@H](NC(=O)[C@@H]1CSC2c3ccccc3C(=O)N21)C(=O)NCc1ccco1 (some centres undefined)	x	-11%	-2%	-1.2%
CCOc1ccc(NC(=S)N(CCOC)C(C)c2cccnc2)cc1 (centres undefined)	2[21.1 µM]	-10%	-3%	-3.0%

# Next compounds:
molecule	GLA inh pH 4.5	Rango dissoc inh	miR-21 FLuc	Rango-impB inh
COc1ccc2ccccc2c1C(=O)/C=C\c1ccoc1	-2	27%	-22%	-4.7%
O=C(NCc1ccccc1)C(c1ccccc1F)N(C(=O)c1csnn1)C1CCCC1 (centres undefined)	x	13%	-2%	-0.6%
Cc1ccc(S(=O)(=O)N(C)C)cc1NC(=O)c1ccccc1SCC(=O)N1CCCC1	x	u	x	-2.2%
Cc1ccc(C(=O)C2OC(=O)C(C)(C)C(=O)C2(C)C)cc1 (centres undefined)	10	-6%	-7%	2.3%
CC(C)OC(=O)c1cccc(C(=O)Oc2ccc(Br)cc2)n1	-29	-10%	-7%	-1.3%
COc1cc(CCc2ccccc2)c(C(=O)O)c(O)c1C/C=C(/C)CCC=C(C)C	x	14%	x	3.2%
C#CCN(C(=O)CC1C(=O)NCCN1C/C=C/c1ccccc1)C1CCCCC1 (centres undefined)	-8	u	-3%	-2.5%
CC(C)c1ccc(Nc2nc(Cl)nc(Cl)n2)cc1	x	2%	1%	1.5%

# Sorted by SMILES length (smallest number first): some entries from above.
molecule	GLA inh pH 4.5	Rango dissoc inh	miR-21 FLuc	Rango-impB inh
CC(C)c1ccc(Nc2nc(Cl)nc(Cl)n2)cc1	x	2%	1%	1.5%
CCOc1ccccc1/C=C/C(=O)c1ccc(Cl)cc1	-14	-4%	10%	0.8%
CCOC(=O)c1[nH]c(C)c(C(=O)N(C)C)c1C	1	-7%	-10%	0.1%
CCOc1ccc(NC(=S)N(CCOC)C(C)c2cccnc2)cc1 (centres undefined)	2[21.1 µM]	-10%	-3%	-3.0%
CC(C)OC(=O)c1cccc(C(=O)Oc2ccc(Br)cc2)n1	-29	-10%	-7%	-1.3%
Cc1ccc(C(=O)C2OC(=O)C(C)(C)C(=O)C2(C)C)cc1 (centres undefined)	10	-6%	-7%	2.3%
CC(=O)OCC1CC(COC(C)=O)C(COC(C)=O)CC1COC(C)=O (centres undefined)	x	0%	x	-1.3%
COc1ccc(NC(=O)Nc2c(C)n(C)n(-c3ccccc3)c2=O)cc1	2	-13%	-14%	-1.6%
CCC1C(=O)N=C(SCC(=O)Nc2ccc(S(N)(=O)=O)cc2)NC1=O (centres undefined)	1	-10%	1%	-0.7%
CCOC(=O)c1cc(-c2ccc(F)cc2)n(CC(=O)NCc2cccnc2)c1C	4	-4%	3%	-0.2%
O=C(NCc1ccccc1)C(c1ccccc1F)N(C(=O)c1csnn1)C1CCCC1 (centres undefined)	x	13%	-2%	-0.6%
COc1cc(CCc2ccccc2)c(C(=O)O)c(O)c1C/C=C(/C)CCC=C(C)C	x	14%	x	3.2%
Cc1ccc(S(=O)(=O)N(C)C)cc1NC(=O)c1ccccc1SCC(=O)N1CCCC1	x	u	x	-2.2%
CSCC[C@H](NC(=O)[C@@H]1CSC2c3ccccc3C(=O)N21)C(=O)NCc1ccco1 (some centres undefined)	x	-11%	-2%	-1.2%

# The listing continues:
molecule	GLA inh pH 4.5	Rango dissoc inh	miR-21 FLuc	Rango-impB inh
CN1CCN(C(=O)c2ccccc2N(Cc2ccccc2)S(=O)(=O)c2ccccc2)CC1	0	2%	0%	0.8%
Cc1ccc(NS(=O)(=O)c2cc(C(N)=O)ccc2C)cc1	10	0%	-9%	1.9%
COCCNC(=O)c1ccc2c(c1)nc(C)n2-c1cccc(Cl)c1	x	-3%	-14%	-0.8%
COc1cc(-c2nc(C(=O)NCC3CCCO3)cc3c2[nH]c2ccccc23)cc(OC)c1OC (centres undefined)	x	-16%	20%	-5.8%
COC(=O)c1c(C)[nH]c(C)c1C(=O)c1ccccc1Cc1ccccc1	-9&-12	-27%	x	0.2%
CCOc1ccc(C(=O)C(C)OC(=O)c2nc(Cl)ccc2Cl)cc1 (centres undefined)	x	1%	x	0.0%
Cc1[nH]nc(N=Cc2c(O)n(C)c(=O)n(C)c2=O)c1-c1ccccc1	-5	3%	-6%	-3.9%
O=C(C(Sc1ccccc1)c1ccccc1)N1CCN(c2ccccc2)CC1 (centres undefined)	-8	8%	8%	1.9%
CCOC(=O)C1=NOC(CNC(=O)c2ccccc2Cl)C1 (centres undefined)	5	9%	3%	2.0%
CCOC(=O)C1(Cc2cccc(OC)c2)CCN(Cc2ccccc2OC)CC1	-5	-1%	10%	-0.1%
CCc1ccc(NC(=O)CSc2nnc(Cn3c(=O)sc4ccccc43)n2C)cc1	3	-6%	-5%	-0.8%
O=C(Nc1ccccc1N1CCCC1)C1CCCO1 (centres undefined)	x	11%	x	u
O=C(COC(=O)C1CCCCC1C(=O)N1CCc2ccccc21)NCc1ccco1 (centres undefined)	0	0%	0%	-4.2%
Cc1ccc(OCC(=O)O/N=C(\N)c2ccccn2)cc1	5	0%	-65%	-2.4%
CCOC(=O)C1(CC2CCCCO2)CCN(Cc2c(C)cc(C)cc2-n2cccn2)CC1 (centres undefined)	-13	6%	3%	3.6%
Cc1ccc2[nH]c3c(=O)n(CC(=O)N4CC(C)CC(C)C4)ncc3c2c1 (centres undefined)	x	6%	0%	0.9%
COc1cc(C(=O)NCC(=O)OCC(=O)Nc2ncc(Cl)cc2Cl)cc(OC)c1OC	4	-3%	6%	-0.9%
Cc1cc(C)n2c(SCC(=O)NC3CCCC(C)C3C)nnc2n1 (centres undefined)	-3	-10%	-4%	2.4%
CCOC(=O)c1c(NC(=O)c2ccccc2C(=O)O)sc2c1CCCC2	x	17%	5%	0.0%
C=C(C)c1cccc(C(C)(C)NC(=O)Nn2cnnc2)c1	2	-4%	2%	-0.4%
Cc1nc2ccccc2nc1NS(=O)(=O)c1ccc(N)cc1	-7	10%	-10%	0.2%
CCN(CC)/C(=N\S(=O)(=O)c1ccc(F)cc1)c1ccccc1	x	1%	0%	4.5%
Cc1ccc(-n2c(C)cc(/C=N/NC(=O)c3ccncc3)c2C)cc1	-2	1%	-6%	-0.2%
Cc1cnc(C(=O)OCC(=O)NC(C)C)cn1	6	-4%	-10%	u
Cc1ccc2nsnc2c1S(=O)(=O)N1CCN(CCc2ccccc2)CC1	-1	-2%	17%	-0.5%
O=S(=O)(N1CCCCCC1)N1CCNCC1	x	3%	0%	0.0%
CN1CCC(NC(=O)CCc2ccccc2)CC1	x	-9%	-5%	-2.5%
Cc1nnc(NC(=O)c2ccc(-c3cccc(C(F)(F)F)c3)o2)s1	-5	-1%	-3%	1.2%
Cn1cccc1C(=O)NC(=O)COC(=O)c1ccccc1O	-10	-4%	-8%	-4.4%
Cc1cc(N2C(=O)C(=O)/C(=C(/O)c3ccc(F)cc3)C2c2ccc(Cl)cc2)no1 (centres undefined)	-8	-6%	-4%	-1.0%
COc1ccc2c(=O)cc(CO)oc2c1	x	-16%	x	-0.2%
O=C(Nc1ccccc1)N1CCC(C(=O)N(Cc2ccco2)Cc2cccs2)CC1	-4	0%	-3%	0.7%
Cc1nc(SCC(=O)N2CC(C)OC(C)C2)nc(C)c1C (centres undefined)	9	14%	0%	1.0%
CC1Sc2ccc(S(=O)(=O)CCC(=O)NC3CCCCC3C)cc2NC1=O (centres undefined)	x	0%	12%	1.3%
COc1ccc(Cl)cc1-c1nc(SCC(=O)NC2CC2)n[nH]1	-7	0%	2%	-2.0%
COc1cccc(N2C(=O)CC(NNC(=O)c3cccs3)C2=O)c1 (centres undefined)	-1	-1%	-14%	-0.4%
CCC/C=C(\CCC)C(NC(=O)OCC(C)C)c1ccc(C(=O)OC)cc1 (centres undefined)	-4&-17	1%	-2%	-0.8%
O=C(NCc1ccccc1)c1ccc(C2SCC(=O)N2Cc2ccccc2)cc1 (centres undefined)	1	-17%	1%	0.3%
CC(=O)N1N=C(c2ccc(C)cc2)CC1c1ccc2c(c1)OCO2 (centres undefined)	-1	1%	-84%	-2.4%
CCOc1ccc(C2/C(=C(\O)c3c(C)[nH]c(C(=O)OC)c3C)C(=O)C(=O)N2CCN(C)C)cc1 (centres undefined)	-4	-6%	-3%	0.8%
COc1ccc(OC)c(NC(=O)CC(Cc2ccccc2OC)C(=O)O)c1 (centres undefined)	-4	-14%	1%	4.2%
COc1ccc(NC(=O)c2sc3cc(C(F)(F)F)cnc3c2-c2cccs2)cc1	4	-9%	2%	-0.3%
Cc1c(CN2CCC(C(=O)Nc3cccc(-c4cccc(Cl)c4)c3)CC2)cnn1C	x	12%	11%	3.6%
COc1cc(/C=N/Nc2nc(Nc3ccc(C)cc3)nc(-n3nc(C)cc3C)n2)cc(OC)c1OC	1	8%	13%	3.6%
CCOc1ccc(-c2csc3nc[nH]c(=O)c23)cc1	x	2%	-37%	1.7%
CCOC(=O)c1cc(-c2ccccc2)nc2c1c(C)nn2-c1ccccn1	12	3%	13%	-0.1%
